CtBP-E1A blk = qHTS Assay for Inhibitors of the CtBP/E1A Interaction. AlphaScreen GST-E1A/His-CtBP binding, 1536-well; active compounds read low; control for the full effect not named in the record. AID 651724, 2012. activity change, % (concentration not given with the values). CtBP / adenovirus E1A interaction (AlphaScreen). 340,000 tested, 0.49% active; in the data active means activity change below about -65%; inconclusive means about -30% to -65%; inactive means above about -30%; note: % is set by controls: 0 for no effect and ±100 for the full control effect
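AlphaScreen with 125 nM GST-E1A and 125 nM His-CtBP (5X stocks) in Tris pH 8.0, 300 mM NaCl, BSA, Tween 20, TCEP. Compounds preincubated 2 h at 37 deg C, then glutathione donor/nickel acceptor beads added for 1 h at 37 deg C in dark.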
TRPML1 agonist = qHTS for Agonists of the Human Mucolipin Transient Receptor Potential 1 (TRPML1) | TRPML1-expressing cells, Ca2+ dye fluorescence, FDSS; host cell line not named in the record; reference of the full effect not given here | activation, % (concentration not given with the values) | 410,000 tested, 0.12% active | AID 624414, 2012; in the data active = activation above about 50%; inconclusive = about 30% to 50%; inactive = below about 30%; note: 0% is about no effect; the text of the record puts the active cut at 80%
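Agonist activity was taken from a 110 s kinetic Ca2+ dye read on the FDSS after pinning compounds onto TRPML1-DL cells. The cells were seeded at 1,500/well with Tet inducer, incubated about 16 h, then dye-loaded at room temperature.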
D2 potentiator = Beta-Arrestin HTS for Positive Allosteric Modulators of the Human D2 Dopamine Receptor: Potentiators. potentiation, % (test concentration not listed). DiscoveRx D2 beta-arrestin cells, luminescence, 90 min; 100% = 57 uM dopamine signal. D(2) dopamine receptor (Homo sapiens), P14416. 360,000 tested, 0.23% active; active = potentiation of 50% or more; inconclusive = 30% to 50%; inactive = 30% or less;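 note: compound concentration not given in the record; tested on top of an EC20 dose of dopamine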
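PathHunter beta-arrestin assay in DiscoveRx D2 cells. Compounds were added with an EC20 of dopamine (50 nM final) for 90 min at 37 deg C. Luminescence was read 1 h after detection reagent, with 57 uM dopamine as the EC100 control.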
PINK1 modulator = A Quantitative High throughput Screen to Identify Chemical Modulators of PINK1 Expression | PINK1 immunofluorescence, high-content cytometry, 24 h | Potency, µM (doses to about 76.6 µM), for the others: top-dose activation (PINK1 increase), usual class: activators | 410,000 tested, 0.2% active; active = well fitted activation curve with a large enough effect; inconclusive = small, poorly fitted or top-dose-only effect; inactive = flat fitted curve, though single readings scatter; cell line not stated here;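 note: potency is the fitted concentration of half-maximal effect; % of control where 0% means no effect; nearly all actives have a fitted effect of over 65% in size; a mitochondrial uncoupler was the plate control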
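Decision-based qHTS: stable cells, 24 h exposure to five compound concentrations, CCCP as control. Fixed cells stained for PINK1 plus nuclear, mitochondrial and cell markers, cytometer read.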
D2 agonist = Beta-Arrestin HTS for Positive Allosteric Modulators of the Human D2 Dopamine Receptor: Agonists | D(2) dopamine receptor (Homo sapiens), P14416 | DiscoveRx PathHunter D2 beta-arrestin, luminescence, 90 min; 100% = 57 uM dopamine signal | activation, % (test concentration not listed) | 360,000 tested, 0.084% active | AID 624465, 2012; in the data active = activation above about 40%; inconclusive = about 15% to 40%; inactive = below about 15%; note: compound concentration not given in the record; the text of the record calls up to 30% inactive
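Agonist mode: compounds alone added to overnight-plated D2 PathHunter cells for 90 min at 37 C, with 57 uM final dopamine (EC100) defining full response. Beta-arrestin recruitment detected by chemiluminescent reagent, read after 1 h at ambient temperature.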
Six1-Eya2 inh = qHTS Assay for Inhibitors of the Six1/Eya2 Interaction; Homeobox protein SIX1 (Homo sapiens) + Protein phosphatase EYA2 (Homo sapiens), …; AlphaScreen GST-Six1/His-Eya2 binding, biochemical; active compounds read low; control for the full effect not named in the record; activity change, % (test concentration not listed); 360,000 tested, 0.56% active; in the data active = activity change below about -65%; inconclusive = about -30% to -65%; inactive = above about -30%; note: % is set by controls: 0 for no effect and ±100 for the full control effect
Target sequence (O00167 whole entry, looked up): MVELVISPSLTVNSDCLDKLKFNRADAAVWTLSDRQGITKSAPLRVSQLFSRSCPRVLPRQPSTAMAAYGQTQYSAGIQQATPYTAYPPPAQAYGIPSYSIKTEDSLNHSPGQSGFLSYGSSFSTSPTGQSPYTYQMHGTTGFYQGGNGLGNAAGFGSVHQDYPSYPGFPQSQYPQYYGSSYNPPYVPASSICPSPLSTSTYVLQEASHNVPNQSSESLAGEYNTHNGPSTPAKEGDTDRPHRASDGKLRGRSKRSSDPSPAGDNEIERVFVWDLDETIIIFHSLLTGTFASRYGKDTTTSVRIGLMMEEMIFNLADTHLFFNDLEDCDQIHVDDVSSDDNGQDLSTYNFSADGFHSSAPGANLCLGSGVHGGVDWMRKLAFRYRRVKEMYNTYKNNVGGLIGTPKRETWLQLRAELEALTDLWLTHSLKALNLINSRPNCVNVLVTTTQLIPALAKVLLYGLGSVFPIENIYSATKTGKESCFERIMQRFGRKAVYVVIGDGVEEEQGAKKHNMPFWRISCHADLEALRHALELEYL
Target sequence (Q15475 whole entry, looked up): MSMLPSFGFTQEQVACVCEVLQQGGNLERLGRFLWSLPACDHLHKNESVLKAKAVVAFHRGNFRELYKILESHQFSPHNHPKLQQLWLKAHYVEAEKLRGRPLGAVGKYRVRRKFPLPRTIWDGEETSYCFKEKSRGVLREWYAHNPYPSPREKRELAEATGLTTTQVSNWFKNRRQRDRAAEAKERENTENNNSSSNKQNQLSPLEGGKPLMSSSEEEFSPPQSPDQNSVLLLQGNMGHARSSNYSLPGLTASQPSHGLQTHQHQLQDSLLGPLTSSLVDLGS
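AlphaScreen luminescence read after one hour at 37 °C in darkness. Pin-transferred compounds met GST-Six1 and His-Eya2 protein (5X stock 250 nM/500 nM) plus glutathione donor and Ni-chelate acceptor beads (5X, 50 ug/mL).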
An asterisk follows results filed as active; ? = inconclusive; . = not tested or not shown; [ ] = dose if it differs, or a comment.

item | canonical_smiles | TRPML1 agonist | CtBP-E1A blk | PINK1 modulator | D2 agonist | Six1-Eya2 inh | D2 potentiator
1 | O=C(O)c1ccc(N/N=C/c2ccc(-c3ccccc3Cl)o2)cc1 | 0.0 | 4 | 14% | 2.5 | 8 | 8
2 | O=NN(CCc1ccncc1)c1ccc(OCc2ccccc2)cc1 | -0.5 | -2 | -0.7% | 13 | 1 | 12
3 | COc1ccc(N2CCN(CCCn3c(=S)[nH]c4ncccc4c3=O)CC2)cc1 | -0.1 | 1 | 5.4% | 1.4 | 0 | -31
4 | C=CCNC(=O)COC(=O)c1ccccc1C(=O)N(C)C1CCCCC1 | 1.2 | -12 | 1.4% | 1.6 | 5 | -3
5 | CCN(C(=O)COC(=O)c1nc(Cl)ccc1Cl)C1CCS(=O)(=O)C1 (configuration not stated) | 0.8 | 0 | 0.8% | -5.8 | 8 | -12
6 | Cc1ccc(S(=O)(=O)N(Cc2ccc([N+](=O)[O-])cc2)C(=O)N2CCN(C)CC2)cc1 | -0.1 | 14 | 2.5% | 0.8 | 14 | -12
7 | Cc1cccc(NC(=O)CNC(=O)c2cc(S(=O)(=O)N(C)C)ccc2N2CCCC2)c1C | -1.0 | -2 | 4.0% | -3.0 | 22 | -18
8 | COc1ccc(C2CC(=O)c3c([nH]c(C(=O)OC(C)C)c3C)C2)cc1OC (configuration not stated) | 0.3 | 7 | 19% | 0.3 | -1 | 5
9 | Cc1ccc(Cn2ncc3c(N4CCN(c5ccc(C)cc5)CC4)ncnc32)cc1 | -1.3 | 3 | 5.2% | -1.3 | -1 | 13
10 | O=C(CCc1ccc(S(=O)(=O)N2CCOCC2)cc1)OCC(=O)c1ccccc1F | -0.6 | 1 | 0.9% | -0.8 | 7 | -6
11 | CCOc1ccc(CCNC(=O)COC(=O)Cn2cnc3ccccc3c2=O)cc1OCC | 0.3 | 9 | 1.5% | 2.5 | 4 | -3
12 | OC(c1ccc(Cl)cc1)c1nccc2ccccc12 (configuration not stated) | -0.7 | . | -0.7% | -4.1 | -20 | -19
13 | O=C(NCc1ccco1)c1cccc(S(=O)(=O)N2CCc3ccccc32)c1 | 2.2 | 0 | -0.6% | -0.2 | 4 | -3
14 | O=c1cc(Cl)[nH]c(=O)n1CCNc1ncc(C(F)(F)F)cc1Cl | 2.9 | -2 | 0.2% | -3.2 | -5 | -5
15 | COc1ccc(OCC(=O)NNC(=O)c2nn(C)c(=O)c3ccccc23)cc1 | 0.1 | 4 | 8.7% | -1.1 | 1 | -2
16 | Cn1cc(C(=O)N/N=C/C2=C(N3CCOCC3)C(=C\c3ccccc3)/CC2)ccc1=O | 0.6 | -4 | 1.3% | -2.1 | 2 | -11
17 | CCCCCc1cc(OC)cc2c1C(=O)OC(C)(C)O2 | -0.7 | 29 | ? | 2.4 | 41 | 0
18 | O=C(O)CCC(=O)N1N=C(c2ccco2)CC1c1cccs1 (configuration not stated) | 0.3 | 1 | 1.3% | -3.7 | -2 | -18
19 | COC(=O)Cc1ccc(NC(=S)N2CCN(C(=O)C3CCCO3)CC2)cc1 (configuration not stated) | 0.1 | -9 | 0.3% | -0.2 | 3 | 17
20 | Cc1ccc(S(=O)(=O)N2CCN(c3cnn(-c4ccccc4)c(=O)c3Cl)CC2)cc1 | -0.4 | -8 | 6.3% | -4.4 | -9 | -4
21 | C/C(=N\NC(=S)NC1CCCCC1)c1cccc(C(F)(F)F)c1 | 1.2 | -4 | 5.7% | -3.5 | 5 | -7
22 | Cc1c(NC(=O)Nc2cccc(C(F)(F)F)c2)c(=O)n(-c2ccccc2)n1C | 1.4 | 7 | 1.4% | -1.9 | 6 | -27
23 | CCOC(=O)c1[nH]cnc1C(=O)Nc1ccncc1 | -0.8 | -3 | 0.0% | 0.3 | -24 | 5
24 | O=C(COc1cccc2ccccc12)N/N=C/c1ccco1 | 1.7 | -7 | 2.0% | -4.8 | -14 | -13
25 | Cc1nc(-c2cccc(NC(=O)c3cccc(S(=O)(=O)N4CCCC4)c3)c2)cs1 | 1.9 | -19 | -0.1% | 1.8 | -26 | 0
26 | O=C(CSc1nncs1)Nc1cc(-c2ccccc2)nn1-c1ccccc1 | 0.6 | -4 | 0.2% | -1.7 | -4 | -17
27 | O=C(OCc1ccccc1)c1ccccc1 | . | 29 | 2.1% | -7.4 | 23 | -31
28 | COc1cc2cncc(Cc3ccc(Cl)cc3)c2cc1OC | 2.6 | -5 | -0.2% | 10 | -1 | -3
29 | C/C(=N\NC(=O)c1nn(C)c(C)c1Br)c1cccc(NC(=O)c2ccoc2C)c1 | 1.4 | -7 | 13% | 2.8 | -13 | 13
30 | CCc1cccc(N(C(=O)c2csnn2)C(C(=O)NC2CCCCC2)c2cccnc2)c1 (configuration not stated) | -0.2 | -1 | 1.8% | -8.0 | 1 | -3

Fetched one by one from the entries so far:
item | canonical_smiles | TRPML1 agonist | CtBP-E1A blk | PINK1 modulator | D2 agonist | Six1-Eya2 inh | D2 potentiator
14 | O=c1cc(Cl)[nH]c(=O)n1CCNc1ncc(C(F)(F)F)cc1Cl | 2.9 | -2 | 0.2% | -3.2 | -5 | -5
12 | OC(c1ccc(Cl)cc1)c1nccc2ccccc12 (configuration not stated) | -0.7 | . | -0.7% | -4.1 | -20 | -19
5 | CCN(C(=O)COC(=O)c1nc(Cl)ccc1Cl)C1CCS(=O)(=O)C1 (configuration not stated) | 0.8 | 0 | 0.8% | -5.8 | 8 | -12

Next section.
item | canonical_smiles | TRPML1 agonist | CtBP-E1A blk | PINK1 modulator | D2 agonist | Six1-Eya2 inh | D2 potentiator
31 | Cc1ccc(C)c(NC(=S)NCC(c2ccccc2)N(C)C)c1 (configuration not stated) | -0.1 | 7 | 4.2% | -4.8 | 2 | -17
32 | O=C1COc2ccc(C(=O)COC(=O)CCOc3ccccc3)cc2N1 | 2.9 | -9 | 0.3% | 0.3 | 8 | 0
33 | O=C(c1ccco1)N(Cc1cccnc1)C(c1ccccc1)c1nc2ccccc2[nH]1 (configuration not stated) | -0.7 | 6 | 2.2% | -3.4 | -3 | -3
34 | COc1cc(CNCCCN2CCOCC2)ccc1OCC(=O)Nc1cccc(C(F)(F)F)c1 | 0.1 | -4 | -1.1%[38.3 µM] | -2.8 | 0 | -14
35 | Cc1cc(C)c(C(=O)CSc2n[nH]c(-c3ccncc3)n2)c(C)c1 | -0.7 | -18 | -0.8% | 5.5 | 1 | -5
36 | Cc1ccc(S(=O)(=O)N2CCCCC2)cc1C(=O)NCc1ccncc1 | 0.0 | 5 | 1.0% | 4.3 | 12 | -3
37 | COC(=O)CNC(=O)CNC(=O)Nc1ccccc1Cl | -0.1 | 1 | 4.0%[38.3 µM] | -2.0 | 0 | -3
38 | CC1=CC(C)(C)n2c(O)c(N=NC(N)=S)c3cc(C)cc1c32 | 4.0 | -7 | 0.0% | 0.0 | -1 | -3
39 | CCOC(=O)C(NC(=O)N(C)C)(Nc1sc(C)c(CC)c1C#N)C(F)(F)F (configuration not stated) | 0.5 | -2 | 4.4% | -5.5 | 2 | -4
40 | Cc1ccc(NC(=O)COC(=O)CN2C(=O)C3CCCCC3C2=O)cc1C (configuration not stated) | -0.9 | . | 1.1% | -4.7 | 0 | -9
41 | O=C(N/N=C/c1cn(-c2cccs2)nc1-c1ccccc1)c1ccccc1Cl | 1.6 | -14 | 1.2% | 1.7 | -2 | 16
42 | CCCN1CN(Cc2ccccc2)CC2=C1CC(C)(C)CC2=O | -0.9 | 13 | -0.5% | -3.0 | -2 | -7
43 | Cc1ccc(S(=O)(=O)Nc2cccc(C(=O)NCCCn3ccnc3)c2)cc1F | -0.7 | 1 | -0.4% | -3.6 | 27 | -16
44 | COc1ccccc1-n1c(SCC(=O)NC2CCS(=O)(=O)C2)nc2ccccc2c1=O (configuration not stated) | 0.2 | . | 1.4% | -1.3 | 8 | 2
45 | CCCCCCN1CCN(C2CN(Cc3cn(CCCCCC)nn3)S(=O)(=O)C2)CC1 (configuration not stated) | -0.4 | 1 | 0.2% | . | -8 | .
46 | CCCCNC(=S)NC(=O)c1ccc(Cl)cc1Cl | 0.2 | 22 | 12% | -2.4 | 17 | 7
47 | Cc1cc(Cl)ccc1OCC(=O)N/N=C/c1ccc(OC2OC(CO)C(O)C(O)C2O)cc1 (configuration not stated) | -0.5 | 1 | 2.3% | 0.4 | 10 | -6
48 | COc1ccc(CNC(=O)CCC(=O)c2ccccc2)cc1 | -0.4 | . | 2.3% | -0.8 | -4 | 0
49 | Cc1oc(-c2cccs2)nc1CS(=O)CC(=O)NC1CCCCCC1 (configuration not stated) | -0.5 | -5 | -2.2% | -0.8 | -1 | -9
50 | Cn1c(C=O)c(-c2ccc3c(c2)OCCO3)c2ccccc21 | -0.7 | 44 | 2.1% | -0.6 | 52 | -10
51 | COc1ccccc1N1CCN(C(=O)C2C3C=CC4(CN(Cc5ccccc5Cl)C(=O)C24)O3)CC1 (configuration not stated) | 0.0 | -4 | ? | -0.7 | 0 | -13
52 | CC1CCCC(NC(=O)CN(C)S(=O)(=O)c2cnc[nH]2)C1C (configuration not stated) | 1.2 | -3 | -0.7% | -0.1 | 12 | -8
53 | O=C(COC(=O)/C=C/c1nc2ccccc2s1)Nc1ccccc1Oc1ccccc1 | 0.2 | -8 | 2.2% | -0.6 | -10 | -6
54 | CCc1n[nH]c2c1/C(=N/O)CCC2 | -0.7 | 3 | 2.8% | -2.7 | 0 | -23
55 | O=C(Nc1cccc(F)c1)c1ccco1 | -0.3 | -1 | 0.9% | -3.9 | 6 | -7
56 | CCOC(=O)C1(C)CCCCCN1C(=O)/C=C/c1ccccc1 (configuration not stated) | -0.6 | 0 | 1.7% | -5.0 | 0 | -3
57 | Cc1ccc(Oc2ccccc2)c(NC=O)c1 | -0.1 | -16 | ? | -1.4 | -2 | -9
58 | CCOn1c(=O)c(-c2cccs2)[n+]([O-])c2ccccc21 | -0.4 | 3 | . | -0.2 | -10 | -11
59 | O=C(Cc1coc2ccc3ccccc3c12)N1CCN(c2ncccn2)CC1 | 0.1 | -4 | -1.0% | -0.7 | -8 | -2
60 | Cc1ccc([C@@H]2C[C@H]3[C@@H](CN2S(=O)(=O)c2ccc(Cl)cc2)C(=O)C[C@@H](c2ccccc2)N3S(=O)(=O)c2ccc(C)cc2)cc1 | 0.7 | 1 | 1.2% | -10 | -4 | 1
61 | O=C(Nc1cccc(C(F)(F)F)c1)c1cc[n+]([O-])cc1 | 0.7 | 5 | -1.8% | 0.9 | 7 | -8

Record cards (already shown).
Cc1ccc(Oc2ccccc2)c(NC=O)c1 reads TRPML1 agonist: -0.1; CtBP-E1A blk: -16; PINK1 modulator: ?; D2 agonist: -1.4; Six1-Eya2 inh: -2; D2 potentiator: -9
COc1ccccc1-n1c(SCC(=O)NC2CCS(=O)(=O)C2)nc2ccccc2c1=O (configuration not stated) reads TRPML1 agonist: 0.2; CtBP-E1A blk: .; PINK1 modulator: 1.4%; D2 agonist: -1.3; Six1-Eya2 inh: 8; D2 potentiator: 2

Source: PubChem
